Bioassay records: PubChem, National Center for Advancing Translational Sciences (NCATS)
Rango-impB inh – qHTS Assay for Inhibitors of Rango (Ran-regulated importin-beta cargo) - Importin beta complex formation; Importin subunit beta-1 (Homo sapiens), Q14974; Rango CFP/YFP FRET sensor + importin beta, 45 min; hit rate 0.031% among 340,000; Potency, µM (titrated, usually from 92.2 µM), for the others: top-dose inhibition of complex formation; active = rising FRET ratio curve, often small or poorly fitted; inconclusive = mostly compound fluorescence or quenching in the first reads; inactive = flat curves in all reads;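 also: potency is read from the fitted curve at half-maximal effect; 0% = DMSO wells and 100% = buffer wells lacking importin beta; nearly all actives have a fitted effect of over 15% in size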
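FRET biosensor Rango (snurportin 1 IBB between N-terminal EYFP and C-terminal Cerulean), 50 nM in PBS/1 mM DTT/0.02% Tween-20/0.1% BSA, preincubated 5 min RT with compound; 0.125 microM importin beta added, 45 min RT, CFP/YFP FRET ratio read.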
Rango dissoc inh – qHTS Assay for Inhibitors of RanGTP induced Rango (Ran-regulated importin-beta cargo) - Importin beta complex dissociation; Snurportin-1 (Homo sapiens) + GTP-binding nuclear protein Ran (Homo sapiens) + Importin …; Biochemical FRET Rango-importin beta, RanGTP-induced dissociation; Potency, µM (series often up to 46.1 µM), for the others: at the highest dose activity change, negative = inhibition; hit rate 0.071% among 340,000; active means falling FRET ratio curve, often poorly fitted, with flat reads before Ran was added; inconclusive means other falling curves, or compound fluorescence or quenching; inactive means flat or rising ratio curve;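 also: potency is read from the fitted curve at half-maximal effect; % of control where 0% means no effect; nearly all actives have a fitted effect of over 45% in size; -100% = wells without RanGTP and RCC1; the record marks most hits as doubtful in a second field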
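Compounds preincubate 5 min with complex of recombinant Rango and importin beta in PBS with 1 mM DTT. Ran (0.6 uM) loaded with 2 mM GTP plus 0.2 uM RCC1 starts dissociation; FRET is recorded 45 min later.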
GLA inh pH 4.5 – qHTS Assay for Inhibitors of Human alpha-Galactosidase at pH 4.5; Alpha-galactosidase A (Homo sapiens), P06280; purified enzyme, 4-MU-alpha-Gal fluorescence, pH 4.5; activity change, negative = inhibition, % at 105 µM; 230,000 tested, under 10 active; AID 1467, 2008; inconclusive = small, poorly fitted or top-dose-only inhibition, or a rising curve; inactive = flat fitted curve, though single readings scatter; no compound was filed as active;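 also: 0% = full activity with enzyme and -100% = basal without enzyme; dose as in the result columns while the protocol names 77 µM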
Target sequence (P06280 whole entry, looked up): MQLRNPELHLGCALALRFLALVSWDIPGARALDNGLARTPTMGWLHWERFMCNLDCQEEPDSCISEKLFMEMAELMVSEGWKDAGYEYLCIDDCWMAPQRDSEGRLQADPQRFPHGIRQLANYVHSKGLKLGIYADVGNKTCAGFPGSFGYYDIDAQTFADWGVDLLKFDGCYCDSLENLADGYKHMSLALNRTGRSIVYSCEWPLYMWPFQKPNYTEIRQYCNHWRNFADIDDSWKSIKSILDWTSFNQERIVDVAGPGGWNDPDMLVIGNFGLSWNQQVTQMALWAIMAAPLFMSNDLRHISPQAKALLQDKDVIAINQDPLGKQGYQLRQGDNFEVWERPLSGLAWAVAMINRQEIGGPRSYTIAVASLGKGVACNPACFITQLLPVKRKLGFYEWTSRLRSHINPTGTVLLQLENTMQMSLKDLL
miR-21 reporter – qHTS Assay for Modulators of miRNAs and/orActivators of miR-21. HeLa miR-21 FLuc reporter, luciferase, 48 h. Potency, µM (doses to about 38.3 µM), inactives show at the top dose reporter change, positive = more light. 340,000 tested, under 10 active. AID 2288, 2010; active = well fitted rising curve with a large enough effect; inconclusive = small, poorly fitted or top-dose-only effect; inactive = no such curve, though single readings can be large or run the other way;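 also: % of control where 0% means no effect; miR-21 action dims this reporter so a rising signal means less miR-21 action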
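Using DMEM plus 10% FBS, HeLa miR-21-FLuc cells are incubated with test compounds (final up to about 40uM) for 48 hours; firefly luciferase signal is then imaged following reagent-mediated lysis.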
Starred values were filed as active, the others as inactive.

A first look:
Screening COc1cccc(NC(=O)CN(C)C(=O)c2ccc(-c3ccc(Cl)cc3)o2)c1 returned Rango-impB inh -0.2% and Rango dissoc inh 8%.
`Cc1ccc(S(=O)(=O)N/N=C/c2ccc(C#N)cc2)cc1` gave Rango-impB inh -0.2%, Rango dissoc inh 25% and miR-21 reporter -4%.

All compounds of this part, repeating the preview:
Screening COc1cccc(NC(=O)CN(C)C(=O)c2ccc(-c3ccc(Cl)cc3)o2)c1 returned Rango-impB inh -0.2% and Rango dissoc inh 8%.
`Cc1ccc(S(=O)(=O)N/N=C/c2ccc(C#N)cc2)cc1` gave Rango-impB inh -0.2%, Rango dissoc inh 25% and miR-21 reporter -4%.
COCCN(CCOC)Cc1c(O)ccc2c1O/C(=C\c1ccco1)C2=O was read as Rango-impB inh inconclusive, Rango dissoc inh inconclusive and miR-21 reporter 1%.
`CCOC(=O)CSc1ccc(C(=O)Nc2ccc(OC)cc2)cn1` gave Rango-impB inh 0.3%, Rango dissoc inh 20%, GLA inh pH 4.5 2 and miR-21 reporter -5%.
Screening O=C(N=C1SC2CS(=O)(=O)CC2N1c1cc(Cl)ccc1Cl)C1CC1 (configuration not stated) returned Rango-impB inh 1.7%, Rango dissoc inh 1% and miR-21 reporter 9%.
`Cc1cc(C(F)(F)F)c(C#N)c(N2CCOCC2)n1` gave Rango-impB inh 3.6%, Rango dissoc inh 0%, GLA inh pH 4.5 -2 and miR-21 reporter -1%.
For CC(C)c1cc(C(=O)O)n(-c2ccccc2)n1 the results were Rango-impB inh 0.7%, Rango dissoc inh 0%, GLA inh pH 4.5 6 and miR-21 reporter -2%.
`CCOc1ccc(NC(=O)CSc2nc3ccsc3c(=O)n2CCC(=O)O)cc1` gave Rango-impB inh -3.4%, Rango dissoc inh 1% and miR-21 reporter 5%.
`N#CC1(NC(=O)CSc2ccccn2)CCCCC1` gave Rango-impB inh 1.3% and Rango dissoc inh 0%.
For Cc1ccc2occ(/C=C/C(=O)c3ccccc3O)c(=O)c2c1 the results were Rango-impB inh 1.9%, Rango dissoc inh 22%, GLA inh pH 4.5 4 and miR-21 reporter -19%.
CCc1nn2c(=O)cc(CSc3nc(C)cc(=O)[nH]3)nc2s1 was read as Rango-impB inh 0.3%, Rango dissoc inh -6%, GLA inh pH 4.5 2 and miR-21 reporter -1%.
For Cc1ccc2c(c1)nnn2C1CCN(S(=O)(=O)c2ccc(C(=O)N3CC(C)CC(C)C3)cc2)CC1 (configuration not stated) the results were Rango-impB inh -1.0%, Rango dissoc inh 0%, GLA inh pH 4.5 -18 and miR-21 reporter -1%.
For O=C(Nc1ccc(C(=O)O)cc1)Nc1cccc([N+](=O)[O-])c1 the results were Rango-impB inh 5.7%, Rango dissoc inh 11%, GLA inh pH 4.5 1 and miR-21 reporter -5%.
For Cc1ccc(NC(=O)Nc2ccccc2F)cc1S(=O)(=O)N1CCOCC1 the results were Rango-impB inh 0.0% and Rango dissoc inh -4%.
CCN(c1cccc(C)c1)C(C(=O)Nc1ccc(OC)cc1)c1cc2c(cc1[N+](=O)[O-])OCO2 (configuration not stated) was read as Rango-impB inh 0.5%, Rango dissoc inh -14%, GLA inh pH 4.5 -5 and miR-21 reporter -21%.
For CCCn1c(CN2CCN(C(=O)OCC)CC2)nc2c1c(=O)n(C)c(=O)n2C the results were Rango-impB inh -1.5%, Rango dissoc inh -5%, GLA inh pH 4.5 5 and miR-21 reporter 0%.
`Cc1ccccc1N(CC(=O)NCCc1ccccc1)C(=O)c1ccc(N2CCCC2)nc1` gave Rango-impB inh 0.3%, Rango dissoc inh -3%, GLA inh pH 4.5 -2 and miR-21 reporter 6%.
O=c1c[n+]([O-])c2ccccc2n1OCc1c(F)cccc1F was read as Rango-impB inh 0.0%, Rango dissoc inh -8%, GLA inh pH 4.5 -9 and miR-21 reporter -7%.
Cc1ccnc(NC(=O)C2CC(=O)N(Cc3ccccc3)C2)c1 (configuration not stated) was read as Rango-impB inh 2.7% and Rango dissoc inh -2%.
Screening O=C(/C=C/c1ccccc1)c1ccc(NC2=NCCCS2)cc1 returned Rango-impB inh -0.2%, Rango dissoc inh 13%, GLA inh pH 4.5 -11 and miR-21 reporter -12%.
For Cc1ccc(C(C(=O)NC2CCCC2)N(C(=O)c2csnn2)c2ccccc2)o1 (configuration not stated) the results were Rango-impB inh -4.6%, Rango dissoc inh 3% and miR-21 reporter 0%.
CCOC(=O)CSc1nc(Nc2ccc3c(c2)OCO3)c2ccccc2n1 was read as Rango-impB inh -1.6%, Rango dissoc inh -7%, GLA inh pH 4.5 -1 and miR-21 reporter -1%.
For Clc1ccc(CN=C(Nc2ccccc2)NC2CCCCC2)cc1 the results were Rango-impB inh -0.2%, Rango dissoc inh 6%, GLA inh pH 4.5 -1 and miR-21 reporter 6%.
`O=S(=O)(c1ccc(Br)s1)N1CCN(CCc2ccccc2)CC1` gave Rango-impB inh -1.6% and Rango dissoc inh -13%.
CCOC(=O)C1=C(C)Nc2sc(C(=O)c3ccc(OC)cc3)c(N)c2C1c1ccc(C(=O)OC)cc1 (configuration not stated) was read as Rango-impB inh inconclusive, Rango dissoc inh inconclusive, GLA inh pH 4.5 1 and miR-21 reporter 6%.
O=C(O)CC(CC(=O)Nc1nncs1)c1ccccc1 (configuration not stated) was read as Rango-impB inh 1.1%, Rango dissoc inh 7%, GLA inh pH 4.5 -2 and miR-21 reporter -6%.
For Cc1nc(Nc2cc(F)ccc2C)c2nnn(Cc3ccccc3)c2n1 the results were Rango-impB inh 2.4%, Rango dissoc inh -5% and miR-21 reporter 4%.
Screening COc1ccc(OC)c(NC(=O)c2ccc(CN(c3cc(Cl)ccc3C)S(=O)(=O)c3ccccc3)cc2)c1 returned Rango-impB inh -0.3%, Rango dissoc inh -1%, GLA inh pH 4.5 11 and miR-21 reporter 0%.
`Cc1cc(C)c(NC(=O)CSc2nc3c(c(=O)n2C)SC(C)C3)c(C)c1` (configuration not stated) gave Rango-impB inh -5.1%, Rango dissoc inh 5%, GLA inh pH 4.5 -3 and miR-21 reporter 5%.
Cn1c(C(=O)N[C@@H](Cc2ccccc2)C(=O)O)cc2cc(Cl)ccc21 was read as Rango-impB inh 0.4%, Rango dissoc inh 6% and miR-21 reporter -2%.
Cc1ccc(N(CC(=O)NCCc2ccccc2)C(=O)CCC(=O)Nc2cc(C)ccn2)cc1 was read as Rango-impB inh -0.5%, Rango dissoc inh -4% and miR-21 reporter -4%.
O=C(NC1CCS(=O)(=O)C1)c1ccc2c(c1)OCO2 (configuration not stated) was read as Rango-impB inh -0.5% and Rango dissoc inh -2%.
`O=C(CN1CCN(c2cccc(C(F)(F)F)c2)CC1)N(C1CCCC1)C1CCS(=O)(=O)C1` (configuration not stated) gave Rango-impB inh 5.8% and Rango dissoc inh 2%.
`Cc1cc(C(=O)NCCCn2ccnc2)cs1` gave Rango-impB inh -4.4%, Rango dissoc inh -23%, GLA inh pH 4.5 -4 and miR-21 reporter -4%.
Screening CSc1nc2ccccc2n1C(=O)Oc1ccccc1 returned Rango-impB inh -0.1%, Rango dissoc inh 9%, GLA inh pH 4.5 11 and miR-21 reporter -1%.
C/C(=N\OCC(=O)Nc1ccc(F)c(F)c1F)c1cc2ccccc2o1 was read as Rango-impB inh -1.8%, Rango dissoc inh 1%, GLA inh pH 4.5 6 and miR-21 reporter -7%.
For CCOc1cc(N2CCOCC2)c(OCC)cc1NC(=O)CSc1nc(N)cc(=O)[nH]1 the results were Rango-impB inh 7.4% and Rango dissoc inh -7%.
`O=c1[nH]n2c(=O)c3c([nH]c2c1N=Nc1cccc(C(F)(F)F)c1)CCCC3` gave Rango-impB inh 2.0%, Rango dissoc inh 11%, GLA inh pH 4.5 -2 and miR-21 reporter -1%.
Screening CC(c1nc2scc(-c3ccccc3)c2c(=O)[nH]1)N1CCN(CC(=O)NC2CC2)CC1 (configuration not stated) returned Rango-impB inh 1.0% and Rango dissoc inh 8%.
For Cc1ccc(SCC(=O)OC(C)C(=O)NCc2ccccc2)cc1C (configuration not stated) the results were Rango-impB inh -3.5% and Rango dissoc inh 2%.

Sorted by heavy-atom count (smallest number first): 3 of the compounds above.
`Cc1cc(C(=O)NCCCn2ccnc2)cs1` gave Rango-impB inh -4.4%, Rango dissoc inh -23%, GLA inh pH 4.5 -4 and miR-21 reporter -4%.
For CCOc1cc(N2CCOCC2)c(OCC)cc1NC(=O)CSc1nc(N)cc(=O)[nH]1 the results were Rango-impB inh 7.4% and Rango dissoc inh -7%.
`O=C(CN1CCN(c2cccc(C(F)(F)F)c2)CC1)N(C1CCCC1)C1CCS(=O)(=O)C1` (configuration not stated) gave Rango-impB inh 5.8% and Rango dissoc inh 2%.

New compounds follow
CNC(=O)NC(=O)CN1C(=O)NC2(CCOc3ccccc32)C1=O (configuration not stated) was read as Rango-impB inh 0.4%, Rango dissoc inh -2% and miR-21 reporter -1%.
`O=C1CC(SC2=NCCS2)C(=O)N1c1ccc(Br)cc1` (configuration not stated) gave Rango-impB inh -1.2%, Rango dissoc inh -9%, GLA inh pH 4.5 -1 and miR-21 reporter -4%.
O=S(=O)(Nc1ccc(-c2cn3ccccc3n2)cc1)c1ccccc1 was read as Rango-impB inh 0.9%, Rango dissoc inh 36%, GLA inh pH 4.5 -16 and miR-21 reporter -44%.
`Cc1ccc(N2C(=O)Nc3ccc(Br)cc3C2(O)C(=O)NCCCN(C)C)cc1C` (configuration not stated) gave Rango-impB inh -1.1%, Rango dissoc inh 0%, GLA inh pH 4.5 -2 and miR-21 reporter -3%.
Cc1c(C)n(CCCN(C)C)c2ncnc(NCc3ccccc3)c12 was read as Rango-impB inh -3.3%, Rango dissoc inh 0% and miR-21 reporter -8%.
`CCOC(=O)C1=NNC2C(=O)N(C3CCCCC3)C(=O)C12` (configuration not stated) gave Rango-impB inh 0.9%, Rango dissoc inh 15%, GLA inh pH 4.5 4 and miR-21 reporter -3%.
Screening COc1ccc(CNC(=O)COC(=O)CCC2CCCCC2)cc1 returned Rango-impB inh 3.8%, Rango dissoc inh -7%, GLA inh pH 4.5 -13 and miR-21 reporter 2%.
Cc1ccc(NC(=S)N2CCN(C)CC2)c(C)c1 was read as Rango-impB inh 0.8%, Rango dissoc inh 9%, GLA inh pH 4.5 -17 and miR-21 reporter -13%.
CC(NS(=O)(=O)/C=C/c1ccccc1)C(=O)NCCc1ccc(S(N)(=O)=O)cc1 (configuration not stated) was read as Rango-impB inh 0.2%, Rango dissoc inh -1%, GLA inh pH 4.5 -7 and miR-21 reporter -1%.
For Cc1ccc(C(=O)C2C(c3ccc(-c4ccccc4[N+](=O)[O-])o3)NC(=O)NC2(O)C(F)(F)F)cc1 (configuration not stated) the results were Rango-impB inh -1.3% and Rango dissoc inh -17%.
For Cc1cccc(-n2cc(-c3ccc([N+](=O)[O-])cc3)[nH]c2=S)c1 the results were Rango-impB inh -3.6%, Rango dissoc inh 13%, GLA inh pH 4.5 1 and miR-21 reporter -40%.
`COC(=O)/C=C/c1c(C)[nH]c(=O)[nH]c1=O` gave Rango-impB inh -2.0%, Rango dissoc inh -15%, GLA inh pH 4.5 2 and miR-21 reporter 0%.
`CC(C)N(Cc1ccccc1)C(=S)Nc1cccnc1` gave Rango-impB inh -3.3%, Rango dissoc inh -14%, GLA inh pH 4.5 2 and miR-21 reporter 4%.
For CCOC(=O)Cn1cncc1-c1ccc([N+](=O)[O-])cc1 the results were Rango-impB inh -1.4%, Rango dissoc inh -4%, GLA inh pH 4.5 17 and miR-21 reporter -34%.
COc1ccc2c(c1)c1ncn(Cc3ccccn3)c(=O)c1n2C was read as Rango-impB inh -2.3%, Rango dissoc inh 6%, GLA inh pH 4.5 17 and miR-21 reporter -4%.

These rows are one share of the data; the hit share may differ from the screen's.
